Screening data deposited in PubChem by National Center for Advancing Translational Sciences (NCATS).
CtBP-E1A blk = CtBP/E1A binding inhibition; activity change, % (test concentration not listed); AlphaScreen GST-E1A/His-CtBP binding, 1536-well; hits give low values; control for the full effect not named in the record; actives 0.49% (n = 340,000); AID 651724; in the data active means activity change below about -65%; inconclusive means about -30% to -65%; inactive means above about -30%; also: % is scaled to controls: 0 for no effect and ±100 for the full control effect; compound concentration not given in the record
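AlphaScreen with 125 nM GST-E1A and 125 nM His-CtBP (5X stocks) in Tris pH 8.0, 300 mM NaCl, BSA, Tween 20, TCEP. Compounds preincubated 2 h at 37 deg C, then glutathione donor/nickel acceptor beads added for 1 h at 37 deg C in dark.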
D2 agonist = agonists of human D2 dopamine receptor (beta-arrestin) | P14416 | DiscoveRx PathHunter D2 beta-arrestin, luminescence, 90 min; 100% = 57 uM dopamine signal | activation, % (no concentration beside the values) | actives 0.084% (n = 360,000) | AID 624465; in the data active = activation above about 40%; inconclusive = about 15% to 40%; inactive = below about 15%; also: compound concentration not given in the record; the text of the record calls up to 30% inactive
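DiscoveRx PathHunter D2 beta-arrestin cells (2,100/well) attached overnight, then compound-stimulated 90 min at 37 C in HBSS/10 mM HEPES/0.1% Tween-20 buffer; beta-galactosidase complementation read by luminescence after 1 h at ambient temperature. Dopamine 57 uM final (EC100) as control.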
TRPML1 ag = human mucolipin-1 channel agonism; Q9GZU1; TRPML1-expressing cells, Ca2+ dye fluorescence, FDSS; host cell line not named in the record; reference of the full effect not given here; activation, % (concentration not given with the values); actives 0.12% (n = 410,000); AID 624414; in the data active = activation above about 50%; inconclusive = about 30% to 50%; inactive = below about 30%; also: 0% is about no effect; the text of the record puts the active cut at 80%
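Kinetic FDSS Ca2+ read in Tet-induced TRPML1-DL cells (ABD Ca8 dye plus quencher, 45-90 min RT loading): baseline, then compound, then 110 s agonist window; EC80 agonist 54-4 at 4uM final added afterwards for a 110 s antagonist window.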
Six1-Eya2 blk = blocks human Six1 binding to Eya2. actives 0.56% (n = 360,000). Q15475+O00167. activity change, % (test concentration not listed). AlphaScreen GST-Six1/His-Eya2 binding, biochemical; hits give low values; control for the full effect not named in the record; in the data active = activity change below about -65%; inconclusive = about -30% to -65%; inactive = above about -30%; also: % is scaled to controls: 0 for no effect and ±100 for the full control effect; compound concentration not given in the record
Target sequence (O00167 whole entry, looked up): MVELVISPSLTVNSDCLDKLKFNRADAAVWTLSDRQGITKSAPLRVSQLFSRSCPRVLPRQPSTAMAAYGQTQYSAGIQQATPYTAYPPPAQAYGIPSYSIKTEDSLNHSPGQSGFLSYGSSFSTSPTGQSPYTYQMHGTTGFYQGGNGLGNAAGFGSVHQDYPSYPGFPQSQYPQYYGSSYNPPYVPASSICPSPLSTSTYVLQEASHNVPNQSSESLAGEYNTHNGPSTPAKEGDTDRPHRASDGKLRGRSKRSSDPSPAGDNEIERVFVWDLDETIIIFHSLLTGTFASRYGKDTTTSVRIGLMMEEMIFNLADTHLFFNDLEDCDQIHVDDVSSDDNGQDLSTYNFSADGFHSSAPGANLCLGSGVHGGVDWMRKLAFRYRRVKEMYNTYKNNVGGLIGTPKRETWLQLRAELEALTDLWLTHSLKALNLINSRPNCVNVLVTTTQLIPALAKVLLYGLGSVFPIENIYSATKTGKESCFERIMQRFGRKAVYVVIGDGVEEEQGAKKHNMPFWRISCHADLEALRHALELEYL
Target sequence (Q15475 whole entry, looked up): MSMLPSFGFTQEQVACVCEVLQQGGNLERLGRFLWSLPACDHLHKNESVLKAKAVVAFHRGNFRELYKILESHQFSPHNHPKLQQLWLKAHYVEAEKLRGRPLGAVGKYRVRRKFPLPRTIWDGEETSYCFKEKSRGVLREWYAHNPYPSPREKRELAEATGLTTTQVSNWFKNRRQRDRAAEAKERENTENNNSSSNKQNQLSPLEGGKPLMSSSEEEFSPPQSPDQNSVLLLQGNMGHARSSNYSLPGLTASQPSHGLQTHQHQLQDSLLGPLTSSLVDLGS
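AlphaScreen luminescence read after one hour at 37 °C in darkness. Pin-transferred compounds met GST-Six1 and His-Eya2 protein (5X stock 250 nM/500 nM) plus glutathione donor and Ni-chelate acceptor beads (5X, 50 ug/mL).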
TRPML1 inh = blocks the human TRPML1 channel | activity change, negative = inhibition, % (test concentration not listed) | Q9GZU1 | AID 624415 | actives 0.02% (n = 390,000) | TRPML1-inducible cells, Ca2+ dye fluorescence, FDSS; hits give low values; inhibition of EC80 agonist-evoked calcium signal; in the data active means activity change below about -50%; inconclusive means about -30% to -50%; inactive means above about -30%;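 also: stimulus is agonist 54-4 at its EC80 concentration; % is scaled to controls: 0 for no effect and ±100 for the full control effect; compound concentration not given in the record; the text of the record puts the active cut at -80%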
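Tet-induced TRPML1-DL cells loaded with Ca8 no-wash calcium dye were read kinetically on FDSS. Compound addition was followed by EC80 agonist 54-4 (4 uM final); inhibition was read over 110 s.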
PINK1 modulator = changes PINK1 expression; PINK1 immunofluorescence, high-content cytometry, 24 h; Potency, µM (highest dose often 76.6 µM), for inactives: at the top dose activation (PINK1 increase), actives largely listed as activators; actives 0.2% (n = 410,000); AID 624263; active = well fitted activation curve with a large enough effect; inconclusive = small, poorly fitted or top-dose-only effect; inactive = flat fitted curve, though single readings scatter; cell line not stated here;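 also: potency is read from the fitted curve at half-maximal effect; % of control where 0% means no effect; nearly all actives have a fitted effect of over 65% in size; a mitochondrial uncoupler was the plate control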
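Readout is PINK1 immunofluorescence, quantified alongside mitochondrial, cell and nuclear markers by laser-scanning microplate cytometry. Cells from a stable line were exposed to compound titrations (5 concentrations) for 24 hours, with CCCP controls.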
The depositor's hits bear a star; u = inconclusive; x = no result given; [ ] = another dose, or the depositor's remark.

SMILES | CtBP-E1A blk | D2 agonist | TRPML1 ag | Six1-Eya2 blk | TRPML1 inh | PINK1 modulator
Cc1ccccc1OCC(=O)Nc1cc(S(=O)(=O)N2CCCCC2)ccc1N1CCN(C)CC1 | -6 | -0.5 | 0.4 | -18 | 1 | 0.3%
CN(C)CCNc1nc(S(=O)(=O)c2ccccc2)c(Cl)s1 | -1 | -5.3 | 0.0 | -1 | 9 | 0.0%
Cc1cccc(C)c1NC(=O)CN(C)c1ccc(C(F)(F)F)cn1 | x | 7.4 | 0.5 | 18 | 0 | 0.7%
Cc1ccc(-c2nc(CCNC(=O)C(=O)Nc3ccc(F)cc3F)cs2)cc1 | x | x | 3.7 | x | -10 | -0.4%
CCC(=O)Nc1ccc(NC(=O)c2ccccc2Cl)nc1 | 3 | 1.3 | 0.6 | 7 | 2 | 2.0%
CC1CN(C(=O)c2c([N+](=O)[O-])cnn2C)CC(C)O1 (centres undefined) | 6 | 0.0 | 3.6 | 7 | 8 | 3.1%[38.3 µM]
CC(=O)c1sc(NC(=O)c2ccc(Cl)cc2)nc1C | 0 | -1.3 | -0.2 | 9 | -2 | 2.3%
O=C(COc1ccc(S(=O)(=O)N2CCCCC2)cc1)NCc1cccnc1 | 0 | -2.2 | -0.1 | 2 | 40 | u
Nc1nc(N)nc(-c2cccc([N+](=O)[O-])c2)n1 | -4 | -5.5 | -0.6 | -13 | x | 0.2%
Cc1cccc(OCC(=O)Nc2ccc3oc(=O)ccc3c2)c1 | -2 | 5.3 | 2.1 | 3 | 27 | 4.4%
CSC(C(=O)c1cc2ccccc2o1)c1ccccc1 (centres undefined) | x | -4.6 | 0.3 | 13 | 19 | 2.6%
Cc1ccc(OCCCC(=O)Nc2ccc(N3CCOCC3)cc2)c(C)c1 | 4 | 3.7 | -0.2 | -4 | -3 | u
COCCn1c(-c2ccc(OC)cc2)c(-c2ccc(OC)cc2)oc1=O | 2 | 3.5 | x | -4 | x | 1.3%
O=C(NCC1CCCO1)c1ccc(NC(=O)c2ccc(Br)cc2)cc1 (centres undefined) | 1 | -1.8 | -0.5 | 7 | 0 | 5.8%
Cc1cccn2c(CNCC3OCCc4ccccc43)c(C(=O)N3CCCCC3)nc12 (centres undefined) | -2 | 0.1 | -0.8 | -10 | -8 | 1.5%
CN1CC(=O)Nc2ccc(F)cc2C1=O | 0 | -1.5 | -0.7 | 6 | -2 | -0.7%
CCCCN(C)Cc1c(C)[nH]c2ccccc2c1=O | 0 | -9.6 | 0.7 | -11 | -12 | -2.0%
COc1ccc(C2c3cccn3CCN2S(=O)(=O)c2ccccc2[N+](=O)[O-])cc1OC (centres undefined) | x | x | 2.3 | x | 26 | 1.3%
CC(=O)Nc1sc(N/N=C\c2cccc(Cl)c2)nc1-c1cccs1 | -24 | -1.6 | -0.3 | u | 4 | 0.6%
O=C(NCc1ccc(F)cc1Cl)C1CCN(S(=O)(=O)N2CCCCC2)CC1 | 14 | -5.9 | 0.0 | 24 | -5 | 3.4%
CCCOc1ccc(C(F)(F)F)cc1NC(=O)C1CC(=O)N(Cc2ccco2)C1 (centres undefined) | 5 | -1.8 | 1.1 | -12 | 0 | 0.5%
CCOC(=O)Nc1cc(OC)cc2ccc(C)nc12 | 4 | -2.2 | -0.7 | 2 | 1 | 2.6%
CC(C)(C)c1ccccc1OCC(=O)NCCCn1ccnc1 | -15 | -0.7 | -0.1 | -3 | -14 | 0.5%
COc1ccc(C(=O)Nc2nc3c(s2)CCCC3)cc1Cl | x | x | 1.4 | x | -1 | 4.2%
Cc1ccc(Cn2nnc3c(=O)[nH]c(C4CCCN(C(=O)c5ccco5)C4)nc32)cc1 (centres undefined) | 0 | 3.5 | 0.4 | 4 | 1 | 1.6%
O=C(NCCCN1CCOCC1)c1ccc(CS(=O)(=O)c2c(Cl)cccc2Cl)o1 | 3 | 1.0 | 0.4 | 5 | 20 | 1.4%
CC(=O)c1ccccc1OCCOCCOCCOc1ccccc1C(C)=O | -2 | -0.3 | -1.5 | -14 | -1 | 1.8%
COc1ccc(-c2nnc(SCc3ccc(C(=O)O)cc3)o2)cc1OC | x | -2.6 | -0.2 | -3 | -6 | 1.0%
Nc1c2c(nc3sc4c(c13)CCCC4)CCCCCC2 | x | -4.5 | -0.8 | -5 | 0 | 8.8%
CCN(c1ccccc1)S(=O)(=O)c1ccc(OC)c(NC(=O)c2cc(Cl)ccn2)c1 | 6 | -5.0 | 2.0 | -6 | 0 | 4.6%
COc1ccc(S(=O)(=O)NCC(c2ccc3c(c2)OCO3)N2CCOCC2)cc1C (centres undefined) | 5 | -6.7 | 0.0 | -3 | 2 | 2.7%
O=C(CN1C(=O)COc2ccc(S(=O)(=O)N3CCOCC3)cc21)N1CCN(c2cccc(C(F)(F)F)c2)CC1 | x | x | 4.5 | x | 12 | -1.1%
COc1ccccc1NC(=O)CSc1nnc(CNC(=O)c2ccco2)o1 | 3 | -6.4 | -0.4 | -2 | 26 | 3.3%
COC(C(=O)Nc1ccc(S(=O)(=O)Nc2c(C)cccc2C)cc1)c1ccccc1 (centres undefined) | 1 | 0.2 | 3.4 | 1 | -11 | 3.7%
O=C(C1CCC1)N1CCN(c2ccnc3cc(Cl)ccc23)CC1 | x | -3.9 | -1.2 | 2 | -6 | 1.8%
CCCC(=O)Oc1ccc(C2NC(=O)c3ccccc3O2)cc1OC (centres undefined) | 3 | -4.1 | 0.2 | -1 | -1 | -0.3%
COC(=O)c1ccc(C2C(C(=O)Nc3ccccc3)=C(C)Nc3nc4ccccc4n32)cc1 (centres undefined) | x | x | 1.0 | x | -18 | 4.5%
COCCn1c(C)cc(C(=O)CSc2ncnc3sc4c(c23)CCC4)c1C | 0 | -1.8 | -0.5 | 3 | -6 | 2.1%
c1cnc(SCCCOc2ccc3ccccc3c2)nc1 | 47 | 0.0 | 2.2 | 50 | 13 | 1.2%
Cc1cc(C)nc(SCc2ccc(C(=O)NNC(=O)Nc3cccc(Cl)c3)cc2)n1 | 8 | 0.4 | 3.5 | -3 | 22 | -2.4%
CCCCC(=O)NC(Nc1sc2c(c1C(N)=O)CCCC2)(C(=O)OCC)C(F)(F)F (centres undefined) | 10 | 1.4 | -0.2 | 3 | -6 | 0.7%
CN(CC(=O)Nc1cccc(Cl)c1)S(=O)(=O)/C=C/c1ccccc1 | 3 | -3.4 | -1.0 | 0 | 32 | 0.8%
CSCC[C@H](N)C(=O)N1CCC(C(=O)N[C@H](C)C(=O)Nc2ccc(C(C)C)cc2)CC1 | 10 | 2.4 | 0.5 | -5 | 10 | 0.3%
COc1ccc(C(=O)NNC(=S)NC(=O)c2ccccc2)cc1 | -4 | -13 | 14 | -12 | -1 | -0.3%
Cc1sc(NC(=O)c2ccco2)c(C(c2cccnc2)N2CCN(c3ccc(F)cc3)CC2)c1C (centres undefined) | -3 | 5.0 | 1.7 | -21 | -9 | 3.3%

In another format: two of the compounds above.
canonical_smiles	CtBP-E1A blk	D2 agonist	TRPML1 ag	Six1-Eya2 blk	TRPML1 inh	PINK1 modulator
c1cnc(SCCCOc2ccc3ccccc3c2)nc1	47	0.0	2.2	50	13	1.2%
Cc1cc(C)nc(SCc2ccc(C(=O)NNC(=O)Nc3cccc(Cl)c3)cc2)n1	8	0.4	3.5	-3	22	-2.4%

Remaining list, next part:
SMILES | CtBP-E1A blk | D2 agonist | TRPML1 ag | Six1-Eya2 blk | TRPML1 inh | PINK1 modulator
COc1ccc(-n2nnnc2SCC(=O)Nc2nnn(C)n2)cc1 | 6 | -5.0 | 0.7 | -1 | -7 | 0.9%[38.3 µM]
CC(C)C(=O)c1cc2c(cc1NC(=O)c1ccccc1)OCCO2 | 11 | -2.4 | -0.1 | 11 | 1 | 2.0%[38.3 µM]
COC(=O)c1c(NC2=NS(=O)(=O)c3ccccc32)sc2c1CCC(C(C)(C)C)C2 (centres undefined) | -1 | -2.0 | 0.8 | 13 | -8 | 7.3%
CC(C)CCNc1nc(N)c([N+](=O)[O-])c(NCC2CCCO2)n1 (centres undefined) | -1 | 2.3 | -0.7 | 4 | 8 | 12%
Cn1c2ccc(CC(=O)O)cc2c2cc(CC(=O)O)ccc21 | 13 | 1.1 | -0.2 | -1 | 1 | 3.3%[38.3 µM]
CSc1nc(Oc2ccc3ccccc3c2)c2sccc2n1 | 3 | -0.1 | 3.1 | 5 | 3 | 2.6%
CC(C)(C)OC(=O)NCCc1nnc(SCc2c(Cl)cccc2Cl)o1 | -4 | 0.0 | 0.1 | -1 | -6 | x
CCCc1nc2ccccc2n1CCOc1ccccc1 | -3 | -1.6 | 4.5 | -1 | 0 | -1.0%
CC(C)c1ccc(NC(=O)C2CC(=O)Nc3nc4ccccc4n32)cc1 (centres undefined) | 5 | -1.6 | x | 8 | x | -0.3%
Cc1ccccc1/C=C\c1nc2ccccc2c(=O)[nH]1 | -8 | -0.7 | 0.2 | 4 | -2 | 5.1%
O=C(NCc1ccccc1)c1cc(C2CCCCN2S(=O)(=O)c2cccs2)on1 (centres undefined) | -5 | 0.7 | 0.0 | 6 | x | -0.6%
CC(=O)c1cccc(NC(=S)NC(=O)c2cccc(C)c2)c1 | -23 | -0.6 | 2.1 | -4 | 23 | 0.4%
CC(C)CCNC(=O)C1CCC(CNc2c(N3CCCC3)c(=O)c2=O)CC1 (centres undefined) | -1 | -1.3 | -0.8 | -11 | 2 | -0.2%
C[C@H](CO)N1C[C@H](C)[C@H](CN(C)C(=O)Cc2cccnc2)Oc2ncc(Br)cc2C1=O | 1 | -9.1 | -0.3 | 4 | 14 | 0.5%
NC(=O)c1ccc(C(=O)N/N=C/c2cccc(Oc3ccccc3)c2)cc1 | 2 | 3.5 | 1.0 | 3 | -9 | 1.5%
O=C(NCc1ccccc1)C1c2ccccc2Oc2ccccc21 | x | -2.0 | 4.2 | 7 | -4 | -0.8%
CC(NC(=O)c1ccc(Br)o1)c1ccccc1 (centres undefined) | -5 | -7.6 | 0.0 | 6 | -1 | -0.5%
CCOC(=O)c1c(C)oc2c1c(C(c1ccncc1)N1CCOCC1)c(O)c1ccccc12 (centres undefined) | -15 | 7.9 | -0.9 | -24 | 4 | 1.7%
CCOC(=O)c1c(NC(=O)C2CCCO2)sc(C(N)=O)c1C (centres undefined) | -4 | -4.9 | -0.1 | 1 | -15 | -1.6%

Shown with two lines to a compound: part of the list above
The line under a structure holds: CtBP-E1A blk	D2 agonist	TRPML1 ag	Six1-Eya2 blk	TRPML1 inh	PINK1 modulator
O=C(NCc1ccccc1)C1c2ccccc2Oc2ccccc21
  x	-2.0	4.2	7	-4	-0.8%
CC(NC(=O)c1ccc(Br)o1)c1ccccc1 (centres undefined)
  -5	-7.6	0.0	6	-1	-0.5%
CCOC(=O)c1c(C)oc2c1c(C(c1ccncc1)N1CCOCC1)c(O)c1ccccc12 (centres undefined)
  -15	7.9	-0.9	-24	4	1.7%
